RN4220 kill: S. aureus RN4220 growth inhibition; inhibition, % (concentration not given with the values); actives 0.33% (n = 330,000); OD600, 16 h;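 active means z-score of -3 or lower and OD600 up to 0.18 on both plates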;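 further: plate controls were untreated cells for no effect and reference antibiotic for full effect; stock transfer was 100 nL into about 80 µL; one replicate is shown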
PrP UTR inh: suppresses PrP 5' UTR mRNA reporter expression | cell-based PrP 5' UTR mRNA reporter, plate reader | inhibition, % (concentration not given with the values) | actives 0.35% (n = 340,000);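 active means every replicate at 50% or more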;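 further: 0 = median of the neutral control wells; tested in H4 reporter cells; numbers are from one replicate; inactives centre near -14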
Bead autofluor: flagged as autofluorescent in microsphere protease counterscreen; fluorescence intensity (concentration not given with the values); AID 624483; actives 3.1% (n = 360,000); compound autofluorescence counterscreen, microsphere flow cytometry; stronger effect = higher value;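 active means at least 3 SD above the mean of all compounds, about 16000 in these data; inconclusive means too few beads counted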;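 further: 100 nL of 1 mM stock went into each well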
BJeLR lethal: kills HRASV12-expressing BJeLR cells. BJeLR (HRASV12) viability, CellTiter-Glo ATP luminescence, 48 h; reference of the scale not given here. AID 1554. actives 0.17% (n = 300,000). inhibition, % (test concentration not listed);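 active means replicate mean above 50%; inconclusive means above 50% but judged a plate artefact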;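 further: 50 nL library stock added to about 25 µL; numbers are from one replicate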
ugtP null kill: compounds lethal to S. aureus RN4220 ugtP deletion mutant. OD600 growth, 16 h; some inactives read as strong as hits. growth inhibition, % (test concentration not listed). actives 0.54% (n = 330,000). AID 1259309;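 active means z-score under -3 and OD600 up to 0.15 on both plates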;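 further: plate controls were untreated wells for no effect and antibiotic for full effect; wells of about 80 µL received 100 nL stock; the first replicate is given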
Mtb hypoxia inh: Mtb hypoxia fluorescent reporter inhibition. M. tuberculosis hypoxia-regulated fluorescent reporter, fluorescence. fluorescence inhibition, % (no concentration beside the values). actives 0.1% (n = 300,000);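 active means 35 to 45% if threefold the growth effect, above 45% if 1.5-fold the growth effect; inactive means the rest, general growth blockers included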;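 further: wells of about 50 µL received 100 nL stock; 0% = vehicle wells and 100% = reference inhibitor wells; whole bacteria with a GFP reporter of the hypoxia response; strong numbers were not always called active; many hits fall short of the cut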
Mtb hypoxia inh growth: further read-out of Mtb hypoxia inh, marked with its call; growth inhibition, %; measured here: M. tuberculosis growth (absorbance);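 0% = vehicle and 100% = reference antibiotic; read after six days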
* marks the source's active call; other numbers are inactive results; ? = inconclusive; . = not tested or not shown. Compounds as they come. Share with any hit: about 4%.

SMILES	RN4220 kill	PrP UTR inh	Bead autofluor	BJeLR lethal	ugtP null kill	Mtb hypoxia inh	Mtb hypoxia inh growth
O=S(=O)(NCC1CCCO1)c1cccc(C(F)(F)F)c1 (stereo not drawn)	0.0	-23	4553	0	0	18	14
CC(=O)c1c(C)n(C)c2ccc(OC(=O)c3ccco3)cc12	-1.2	-12	3393	-5	4	6	0
CCOc1cc(N2CCOCC2)c(OCC)cc1NC(=O)CSc1cccc[n+]1[O-]	6.0	-29	3209	-7	-1	13	3
O=C(Cn1cnc2ccccc2c1=O)c1ccc(Br)cc1	5.1	-27	5013	5	5	7	11
O=C(COC(=O)C1CCCC1)Nc1cccc(Cl)c1Cl	4.8	-15	3572	.	1	3	-1
CCn1c(SCC(=O)Nc2nc3ccc(C)cc3s2)nc2c(c1=O)SC(C)C2 (stereo not drawn)	1.8	-13	2860	7	-11	.	.
CCOc1ccc(NC(=O)C(CC)NC(=O)c2ccccc2CO)cc1 (stereo not drawn)	0.1	-10	2490	-17	9	.	.
COc1cc(CNC(C)c2ccccc2)cc(Br)c1OCc1ccccc1 (stereo not drawn)	-8.9	-5	3195	23	-11	7	-3
O=C(COc1ccc(Br)cc1)N1CCN(S(=O)(=O)/C=C/c2ccccc2)CC1	-1.8	-29	2668	3	1	-5	7
Cn1ncc(Br)c1C(=O)Nc1ccc(Cl)cn1	6.3	-23	2374	-11	0	14	5
Cc1cc(C(=O)CSc2nnc(Nc3ccccc3F)s2)c(C)n1CC1CCCO1 (stereo not drawn)	5.6	-34	3399	5	-5	-3	-3
CCN(CC)c1ccc(C=Nc2ccccc2C)c(O)c1	3.1	-40	6889	-8	1	-2	7
CCOc1ccc(NC(=O)C2CC(=O)N(CCc3ccccc3)C2)cc1OC (stereo not drawn)	3.5	-2	3731	.	5	-5	1
COc1ccc(-c2cc(-c3cc(C)ccc3O)[nH]n2)cc1	-6.2	-61	2632	-4	14	1	2
Cc1nc2cc3ccccc3cc2n1C	2.9	-29	2583	-19	-3	24	16
Cc1cccc(NC(=S)NCC(c2cccnc2)N(C)C)c1C (stereo not drawn)	3.8	-10	2439	-9	1	9	2
COc1ccc(-c2ccc(OC)c([C@H]3[C@H]4C=CC[C@@H](C)[C@@H]4C(=O)N3Cc3ccccc3)c2)cc1OC	.	-13	3745	-1	.	.	.
CCOC(=O)c1c(C)c(C(=O)NCCc2ccccc2)c(C)n1C	11	-20	2713	-3	3	6	4
CC(=O)Nc1ccc(NC(=O)Cn2ccc([N+](=O)[O-])n2)cc1	5.6	-22	4793	11	5	11	0
CCN1C(=O)C2C(c3ccc(C)cc3)N3C(=O)N(c4cccc(Br)c4)C(=O)[C@@]3(CC(C)C)C2C1=O (stereo partly drawn)	1.4	.	.	.	-2	-2	9
Cc1ccc(N2CCN(CCc3nc4cc(NC(=O)c5ccco5)ccc4n3C)CC2)cc1	4.2	0	24375*	8	7	1	3
CC(OC(=O)CN(C)S(=O)(=O)c1ccc(Cl)cc1)C(=O)Nc1cccc(Cl)c1 (stereo not drawn)	6.7	4	10400	-6	-21	3	7
CCC(CO)NCc1ccc(Br)cc1 (stereo not drawn)	1.0	-16	2644	5	-1	4	1
CCO[C@@H]1OC(C(=O)NC2CC2)=C[C@H](C2CCCCC2)[C@H]1CCCO	.	-18	4152	6	.	.	.
COC(c1ccccc1)c1nnc(CCC(=O)N2CCN(Cc3cccs3)CC2)o1 (stereo not drawn)	1.9	-15	4225	1	1	17	1
O=C(CN1C(=O)CCC1=O)Nc1nc(-c2ccc(Cl)s2)cs1	-0.2	-7	1991	10	2	5	5
O=C(Cn1nc(CNc2ccc(Br)cc2)[n+]2c1CCCCC2)c1ccc([N+](=O)[O-])cc1	-8.1	7	4574	4	-26	17	32
COc1ccc(C(=O)NCC(=O)OCC(=O)NCc2cccs2)cc1	7.3	-20	3992	-2	3	4	5
Cn1cccc1C1C=C(c2ccc(C(C)(C)C)cc2)Nc2ncnn21 (stereo not drawn)	11	-19	2837	-8	-2	8	4
Cc1cc(C)c(C#N)c(Nc2ccccc2F)n1	7.5	-6	4309	4	8	7	13
CCOC(=O)C1(CCOc2ccccc2)CCN(Cc2ccc(O)c(OCC)c2)CC1	3.9	0	2984	-9	8	12	3
NC(=O)CSc1nc2c(sc(=S)n2-c2ccccc2)c(=O)[nH]1	2.9	-16	3920	0	4	17	9
CC(C)Oc1cccc(C(=O)NC(=S)Nc2ccccc2N2CCOCC2)c1	-0.1	-17	5623	-2	5	6	3
Cn1cnnc1Sc1nc2ccccc2nc1NS(=O)(=O)c1ccccc1	-4.4	-2	9623	-12	-10	-5	-2
O=C(NCc1n[nH]c(=S)n1-c1cccc(Cl)c1)c1cccs1	4.4	-21	4872	3	2	9	1
C=CCNC(=S)N/N=C/c1cccc([N+](=O)[O-])c1	.	-3	3964	4	.	.	.
Cc1cc(/C=N/NC(=O)c2cccc(F)c2)c(C)n1-c1ccccc1	.	-49	2596	-4	.	.	.
Cc1[nH]c2ccccc2c1C(=O)COC(=O)C1CCC(=O)N1 (stereo not drawn)	1.0	-7	3644	-4	-7	.	.
CC(C)c1ccc(S(=O)(=O)N2CCN(C(=O)c3cc(-c4ccccc4)n[nH]3)CC2)cc1	3.0	-36	5273	-9	5	.	.
CCCN1CCC(N2CCN(c3ccc([N+](=O)[O-])cc3)CC2)CC1	0.9	-7	3838	7	-2	-7	6
O=S(=O)([O-])CCC[n+]1ccc(Oc2ccccc2)cc1	2.8	-14	4073	-3	3	4	2
O=C(NN=Cc1cccs1)c1cccc2cc[nH]c12	1.7	.	.	.	-8	2	5
COC(=O)C1=C(c2cc3ccccc3s2)C[C@@H]2CC[C@H]1N2C(=O)NC1CCCCC1	.	-20	2945	7	.	.	.
O=[N+]([O-])c1cc([N+](=O)[O-])c(Oc2cccc(Cl)c2Cl)cc1NN1CCCCC1	-8.3	-10	3576	13	5	23	8
CCOC(=O)c1ccc(OCC(=O)c2ccc(O)cc2O)cc1	1.0	-39	3526	-5	-4	0	5
COc1ccccc1N(C)S(=O)(=O)c1ccc(C(=O)OCC(=O)Nc2ccc(C(N)=O)cc2)cc1	6.2	-16	6497	.	3	6	4
COc1cccc(CC2(CO)CCCN(Cc3c(C)cc(C)cc3-n3cccn3)C2)c1 (stereo not drawn)	9.2	-18	6555	-3	4	-3	-14
Cc1ccc(C(=O)NCCNC(=O)COc2ccccc2Cl)cn1	4.5	-18	3159	-11	5	9	-2
CC(C)Cn1c(N)c(C(=O)COC(=O)c2cccn2C)c(=O)n(C)c1=O	0.5	4	2809	.	-1	-8	-4
O=C(N/N=C/c1cn[nH]c1-c1ccc(F)cc1)c1ccncc1	.	0	9762	1	.	.	.

Some of the entries so far, as a markdown table.
| smiles | RN4220 kill | PrP UTR inh | Bead autofluor | BJeLR lethal | ugtP null kill | Mtb hypoxia inh | Mtb hypoxia inh growth |
| --- | --- | --- | --- | --- | --- | --- | --- |
| COC(=O)C1=C(c2cc3ccccc3s2)C[C@@H]2CC[C@H]1N2C(=O)NC1CCCCC1 | . | -20 | 2945 | 7 | . | . | . |
| O=[N+]([O-])c1cc([N+](=O)[O-])c(Oc2cccc(Cl)c2Cl)cc1NN1CCCCC1 | -8.3 | -10 | 3576 | 13 | 5 | 23 | 8 |

Three entries from above, bar-delimited.
canonical_smiles | RN4220 kill | PrP UTR inh | Bead autofluor | BJeLR lethal | ugtP null kill | Mtb hypoxia inh | Mtb hypoxia inh growth
COc1cccc(CC2(CO)CCCN(Cc3c(C)cc(C)cc3-n3cccn3)C2)c1 (stereo not drawn) | 9.2 | -18 | 6555 | -3 | 4 | -3 | -14
O=S(=O)([O-])CCC[n+]1ccc(Oc2ccccc2)cc1 | 2.8 | -14 | 4073 | -3 | 3 | 4 | 2
O=C(NN=Cc1cccs1)c1cccc2cc[nH]c12 | 1.7 | . | . | . | -8 | 2 | 5

Following part.
SMILES	RN4220 kill	PrP UTR inh	Bead autofluor	BJeLR lethal	ugtP null kill	Mtb hypoxia inh	Mtb hypoxia inh growth
CCc1c(C2(O)CCCCC2)[nH]c2ccc(C(=O)OC)cc12	-2.7	-15	3847	-4	-15	8	4
Nc1ccc(C(=O)OCC(=O)N2CCOCC2)cc1[N+](=O)[O-]	2.4	-69	2501	0	-8	2	2
CC(C)c1ccc(S(=O)(=O)N2CCN(C(=O)c3ccncc3)CC2)cc1	4.1	-12	3974	.	5	7	8
Cc1ccc(NC(=O)Nc2ccc3c(c2)C(=O)OC3)cc1Cl	3.1	-51	.	7	-10	0	12
O=C(CCN1C(=O)c2cccc3cccc(c23)C1=O)N1CCN(Cc2ccc3c(c2)OCO3)CC1	8.9	-17	12079	3	-18	-3	0
O=C(CSc1nnc(-c2ccc(F)cc2)o1)N1CCN(C(=O)c2ccco2)CC1	-0.2	4	7728	-1	-14	19	1
COc1cc2[nH]c(-c3cccc(F)c3)cc(=O)c2cc1OC	1.0	-16	4453	5	-3	12	-4
COc1ccc(/C(C)=N/OCC(=O)N=Nc2c(O)[nH]c3ccc(Br)cc23)cc1	.	0	2569	-10	.	.	.
CC(C)CC1NC(=O)N(Cc2nc3ccccc3s2)C1=O (stereo not drawn)	4.2	-19	5511	22	13	10	12
CC(=O)N(C)C1=C(N2CCOCC2)C(=O)c2ccccc2C1=O	12	-6	24878*	20	0	18	12
CC(=O)Nc1cc2c(cc1Cl)-c1ccccc1C2	-1.1	-63	3815	.	-7	11	13
CC(=O)Oc1ccc(-c2csc(Nc3ccc(Cl)cn3)n2)cc1	12	-56	3491	-2	6	-4	-6
Cc1ccc(S(=O)(=O)N2CCN(C(=O)c3cc4c(s3)CCCC4)CC2)c(C)c1	2.8	.	?	.	-3	8	15
COc1ccccc1-n1c(CCn2nc(C)c(Br)c2C)n[nH]c1=S	7.3	-30	2046	-11	5	7	7
CCOc1ccc(S(=O)(=O)N/N=C2/CC(c3ccccc3)Oc3ccccc32)cc1 (stereo not drawn)	.	6	19045*	-1	.	.	.
O=C(NCc1cccc(F)c1)c1cccc2c1C(=O)c1ccc(N3CCOCC3)cc1S2(=O)=O	3.2	4	3853	.	-1	4	3
Cc1ccc(-c2ccc(/C=C3\SC(N4CCOCC4)=NC3=O)o2)cc1	.	5	4769	-8	.	.	.
O=C(Nc1cccc2ncccc12)c1cc(Br)ccc1Cl	17	-5	.	1	5	9	-1
CC(C)c1ccc2oc(=O)cc(CN3CCN(Cc4ccccc4)CC3)c2c1	-1.3	-17	2986	-2	10	11	6
CN1CCN(c2ccccc2NC(=O)c2ccc(-c3ccc(Cl)c(Cl)c3)o2)CC1	-1.8	-9	?	3	-2	-1	18
O=C(Nc1ccc(Br)cc1)c1cccc(N2C(=O)C3C4C=CC(C4)C3C2=O)c1 (stereo not drawn)	1.4	-15	6101	-15	10	10	-6
CCP(=O)(c1ccccc1)C(C)(C)O (stereo not drawn)	0.3	-8	2709	.	1	.	.
COc1ccc(C(=O)C2CCCN(Cc3ccc4c(c3)OCCO4)C2)cc1F (stereo not drawn)	5.1	-7	6989	3	18	12	2
Nc1nnc(CC(=O)NN=Cc2ccc(-c3ccc(F)cc3)o2)s1	0.0	.	.	.	-3	7	3
O=C(Cn1cc2c(n1)CCCCC2)Nc1ccccc1Cl	6.2	-23	5907	-7	6	19	12
CC(=NNc1ccc([N+](=O)[O-])cc1[N+](=O)[O-])C(C)C(C)C (stereo not drawn)	5.2	.	.	.	11	2	9
Cc1c(Br)ccc(NC(=O)c2ccccc2[N+](=O)[O-])c1C	4.5	-6	2020	-5	-1	-12	-11
CCCc1cc(=O)[nH]c2nnc(SCC(=O)Nc3nccs3)n12	4.6	-5	.	0	4	10	0
Cc1nc2ccc(Br)cc2c(=O)n1Cc1cccs1	1.2	-20	4115	6	-6	-10	10
CCOC(=O)c1ccc(N=C2C(=S)N(c3ccc(C(=O)OCC)cc3)C(=N)N2N=Cc2ccccc2)cc1	-3.1	.	.	.	-10	-16	0
CCOC(=O)C1CCN(C(=O)c2cccc(N3C(=O)NC4CC3(C)Oc3ccc(C)cc34)c2)CC1 (stereo not drawn)	3.6	-2	6481	-5	8	2	-1
CC(C)NS(=O)(=O)c1ccc(NC(=O)C(C)OC(=O)CCC2CCCCC2)cc1 (stereo not drawn)	6.0	-22	?	.	-6	9	-7
CCOC(=O)c1cc(-c2ccccc2)sc1NC(=O)C(C)Sc1nnc(N)s1 (stereo not drawn)	-2.1	-4	3106	-20	-2	5	8
COc1ccc(/C=C(/NC(=O)c2ccccc2Cl)C(=O)NCCCC(=O)O)cc1	1.4	-16	3341	4	3	-1	-3

High-throughput results from PubChem BioAssay.
